Sa RN4220 lethal – growth inhibition of S. aureus RN4220, primary screen, OD600 | hit rate 0.33% among 330,000 | 16 h | AID 1259311, 2017 | inhibition, % (concentration not given with the values);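 active = z-score of -3 or lower and OD600 up to 0.18 on both plates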;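 also: plate controls were untreated cells for no effect and reference antibiotic for full effect; stock transfer was 100 nL into about 80 µL; one replicate is shown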
Mtb hypoxia inh – PubChem AID 1159583. M. tuberculosis hypoxia-regulated fluorescent reporter, fluorescence. fluorescence inhibition, % (concentration not given with the values). hit rate 0.1% among 300,000;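 active = 35 to 45% if threefold the growth effect, above 45% if 1.5-fold the growth effect; inactive = the rest, general growth blockers included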;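 also: wells of about 50 µL received 100 nL stock; 0% = vehicle wells and 100% = reference inhibitor wells; whole bacteria with a GFP reporter of the hypoxia response; strong numbers were not always called active; many hits fall short of the cut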
Autofluor counter – flagged as autofluorescent in microsphere protease counterscreen; compound autofluorescence counterscreen, microsphere flow cytometry; active compounds read high; fluorescence intensity (concentration not given with the values); hit rate 3.1% among 360,000; AID 624483;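 active = at least 3 SD above the mean of all compounds, about 16000 in these data; inconclusive = too few beads counted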;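 also: 100 nL of 1 mM stock went into each well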
BJeLR lethal – MLPCN primary cell-based screen for lethality selective to Ras in HRASV12 cells. BJeLR (HRASV12) viability, CellTiter-Glo ATP luminescence, 48 h; reference of the scale not given here. inhibition, % (test concentration not listed). hit rate 0.17% among 300,000. AID 1554, 2009;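 active = replicate mean above 50%; inconclusive = above 50% but judged a plate artefact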;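 also: 50 nL library stock added to about 25 µL; numbers are from one replicate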
PrP 5UTR inh – inhibition of PrP 5' UTR reporter expression; hit rate 0.35% among 340,000; inhibition, % (concentration not given with the values); cell-based PrP 5' UTR mRNA reporter, plate reader;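 active = every replicate at 50% or more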;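 also: 0 = median of the neutral control wells; tested in H4 reporter cells; numbers are from one replicate; inactives centre near -14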
ugtP null kill – growth inhibition of ugtP-null S. aureus, primary screen, RN4220 ugtP deletion, OD600 | hit rate 0.54% among 330,000 | 16 h; some inactives read as strong as hits | growth inhibition, % (test concentration not listed);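 active = z-score under -3 and OD600 up to 0.15 on both plates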;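 also: plate controls were untreated wells for no effect and antibiotic for full effect; wells of about 80 µL received 100 nL stock; the first replicate is given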
Mtb hypoxia inh growth – also measured in Mtb hypoxia inh; calls as there; growth inhibition, %; measured here: M. tuberculosis growth (absorbance);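 0% = vehicle and 100% = reference antibiotic; read after six days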
Active calls of the source: *; ? = inconclusive; . = no result given.

molecule | Sa RN4220 lethal | Mtb hypoxia inh | Mtb hypoxia inh growth | Autofluor counter | BJeLR lethal | PrP 5UTR inh | ugtP null kill
Cc1ncc(CN2CCCC(C(=O)c3sccc3C)C2)s1 (stereo unspecified) | 5.5 | 3.9 | 2.0 | 4781 | 6.7 | -22.4 | 19.6
O=C(NCC(=O)N(c1ccc(Cl)cc1)C(C(=O)NC1CCCC1)c1cccnc1)c1ccco1 (stereo unspecified) | 1.7 | 1.5 | -1.8 | 3306 | 5.8 | -28.9 | 2.1
O=C(O)c1ccc(S(=O)(=O)Nc2ccc3c(c2)OCCO3)cc1 | 5.1 | 10.1 | 7.0 | 3498 | 1.6 | -3.4 | 1.6
FC(F)(F)c1ccc2c(c1)N1CCCC1CN2 (stereo unspecified) | 1.3 | 8.6 | 12.9 | 4100 | 5.5 | -21.7 | -3.3
COc1cccc(CN2CCN(Cc3cccc4nonc34)CC2CCO)c1 (stereo unspecified) | 0.3 | 3.3 | 5.4 | 3488 | 2.4 | -17.3 | -1.9
CN(C)S(=O)(=O)c1cccc(NC(=O)CC23CC4CC(CC(C4)C2)C3)c1 | -1.1 | 2.0 | 1.4 | 5203 | 6.9 | -13.9 | 5.1
CC(=O)NNC(=S)Nc1cccc(F)c1 | 2.3 | 9.1 | 5.0 | 6172 | -5.8 | -21.7 | -2.6
COc1cc(/C=N/Nc2ccccc2)ccc1O | . | . | . | 3581 | 6.6 | -2.8 | .
O=C(NCc1cn2ccsc2n1)c1cccs1 | 5.9 | 0.0 | 1.7 | 6138 | -0.9 | -7.9 | 5.1
Cc1oc(-c2cccs2)nc1CSCC(=O)N1CCC2(CC1)OCCO2 | 3.7 | active | 53.2* | 3944 | 7.1 | -17.2 | 6.9
COCCNC(=S)N1CCC(Cc2ccccc2)CC1 | -0.6 | 4.3 | -7.9 | 5057 | -1.1 | -13.3 | 9.2
COC(=O)c1[nH]c2cc(OC)ccc2c1NC(=O)CN1CCC(C(N)=O)(N2CCCCC2)CC1 | 1.4 | . | . | 2415 | -2.5 | 13.8 | 2.8
Cn1cc(C(=O)OCC(=O)NC2(C#N)CCCCC2)c2ccccc21 | 5.3 | -2.6 | 8.3 | ? | . | -23.2 | 9.3
Cc1sc2ncnc(NN=Cc3ccc(O)cc3)c2c1C | 5.5 | 4.0 | 3.8 | . | . | . | -3.3
O=S1(=O)N=C(N(CCO)/N=C/c2ccc(Br)cc2)c2ccccc21 | . | . | . | 4297 | -4.1 | 19.2 | .
CC(Cn1nnc([N+](=O)[O-])n1)=NNC(=O)c1ccc(O)cc1O | -3.0 | 6.8 | -10.7 | . | . | . | 18.1
CCCCOc1ccc(C(=O)N2CCC(C)CC2)cc1 | 3.3 | 7.7 | 9.4 | 3362 | 2.4 | -22.7 | 2.1
O=C(CCNS(=O)(=O)c1ccccc1)N1CCCC1 | 0.3 | 4.0 | 7.9 | 6057 | -5.0 | -27.3 | 2.3
CC1(C)CC(=O)C(=Cc2cn(CCC#N)nc2-c2ccc(F)cc2)C(=O)C1 | 2.2 | 4.6 | 0.6 | 2127 | -3.6 | 2.6 | 6.0
CN(CC(=O)N1CCCCCC1)S(=O)(=O)c1ccc(Br)cc1 | 0.1 | -0.3 | 10.9 | 3462 | -5.7 | -6.7 | 2.1
CCCCc1ccc(NC(=O)C(C)CC)cc1 (stereo unspecified) | 2.8 | 3.1 | 4.2 | 4431 | -9.8 | 3.2 | 3.2
CCOc1ccc(S(=O)(=O)Nc2ccc(O)c(Sc3ncn[nH]3)c2)cc1 | 3.8 | 2.1 | 6.3 | 3015 | 1.5 | -0.8 | -6.7
CC1(C)C(c2cccs2)=[N+]([O-])C2(CCCCC2=O)N1O (stereo unspecified) | 0.9 | -14.5 | -6.6 | 4317 | 0.0 | -27.5 | -5.1
O=C(Nc1cccc(Cl)c1)N1C[C@H]2C[C@@H](C1)c1cccc(=O)n1C2 | 2.2 | . | . | 5809 | -0.4 | -34.8 | 4.8
Cc1noc(C)c1COc1ccccc1C(=O)NC1CCC(C)CC1 (stereo unspecified) | 2.2 | 11.1 | 0.5 | 4198 | -3.2 | -4.4 | 15.3

(cont.)
molecule | Sa RN4220 lethal | Mtb hypoxia inh | Mtb hypoxia inh growth | Autofluor counter | BJeLR lethal | PrP 5UTR inh | ugtP null kill
COc1cc(C=C2SC(=O)N(Cc3ccccc3)C2=O)ccc1OCc1ccncc1 | 2.6 | -3.1 | -7.2 | . | . | . | -8.0
CCN1CCN(CC(O)COc2cccc(OC)c2)CC1 (stereo unspecified) | 3.4 | . | . | 2825 | 7.4 | -3.8 | 3.2
CCC(=O)N1CCn2c1nc1ccccc12 | -0.3 | 4.1 | 1.4 | 10763 | 5.4 | . | 7.8
COc1ccc(C=NNc2ncc(C(F)(F)F)cc2Cl)c(OC)c1OC | -2.5 | -11.9 | 0.9 | . | . | . | -3.9
NC(=S)N/N=C/c1ccc2ccccc2c1 | . | . | . | 2115 | 5.5 | -13.3 | .
O=C(CSc1ccc2nnc(-c3cccs3)n2n1)N1CCCC1 | 5.1 | -11.2 | 6.2 | 3514 | -10.7 | -19.0 | 4.3
Fc1ccc(-c2csc(N3CCC(c4ccccc4)C3)n2)cc1 (stereo unspecified) | -6.5 | 7.4 | 4.0 | 3245 | -3.3 | -83.5 | 14.3
O=C(Nc1ccc(O)cc1)c1ccc(NC(=O)c2ccco2)cc1 | -0.9 | 6.8 | 16.6 | 5869 | -6.9 | -27.9 | -1.3
CC(=NNC(=O)c1c(Cl)cnn1C)c1cccc(NC(=O)c2ccc(C)cc2)c1 | 2.0 | 3.6 | 3.4 | . | . | . | 5.0
Cc1oc(-c2cccs2)nc1CN1CCC(C(=O)N2CCCC2)CC1 | 2.6 | -4.5 | 10.3 | 5362 | 0.2 | -18.1 | 3.0
COc1cc2c(cc1OC)n(CC(=O)NC1CCCCCC1)n1c(C)cc(=O)nc21 | -0.9 | 11.0 | 2.9 | 4595 | -4.9 | -4.5 | 0.5
C=C1CCN(C(CC(C)C)C(=O)NN2CCOCC2)S(=O)(=O)c2ccccc21 (stereo unspecified) | 7.5 | 15.1 | 1.7 | . | . | . | 1.6
CCO[C@@H]1OC(C(=O)N2CCOCC2)=C[C@H](c2ccc(C(F)(F)F)cc2)[C@H]1CCCO | . | . | . | 4007 | 9.2 | -10.2 | .
CCC(C)(C)c1ccc(O)cc1 | 6.1 | 10.0 | 10.7 | 5637 | . | -14.7 | 4.0
Cc1cc(C)c2c(N)c(C(=O)N/N=C/c3cccnc3)sc2n1 | . | . | . | 6263 | 4.9 | -34.5 | .
Cc1cc(NC(=O)Nc2c[nH]c(=O)[nH]c2=O)ccc1Br | -2.7 | 6.0 | 4.7 | 3729 | 3.6 | -24.1 | 10.6
COc1cc(Cl)ccc1OCc1cc(C(=O)N2CCN(C)CC2)no1 | 2.6 | 4.0 | 0.1 | 5463 | 3.0 | -4.3 | -3.4
COc1ccc(CN(CC2CCC(C(=O)O)CC2)C(=S)Nc2ccccc2C)cc1 (stereo unspecified) | -0.9 | -5.3 | -7.2 | 3200 | 3.7 | -54.6 | 6.0
CC(=O)c1ccc(C)cc1OC(=O)c1cccc(F)c1 | 8.4 | 2.8 | 3.1 | 2278 | -7.5 | -28.6 | 7.5
Cn1ccnc1COc1ccc(/C=N/O)cc1 | . | . | . | 3860 | -4.4 | -70.7 | .
COc1ccc(/C=N/Nc2nc(C)nc(N)n2)cc1 | . | . | . | 3621 | -14.8 | -30.5 | .
Fc1cccc(-c2ncc(-c3ccccc3)o2)c1 | 3.3 | 0.0 | 1.5 | 3546 | . | -77.8 | -5.4
COc1cccc(CC(=O)N2CCCC(CCC(=O)N3CCN(c4ccccn4)CC3)C2)c1 (stereo unspecified) | 7.8 | 4.0 | -0.8 | 4670 | -1.8 | -21.1 | 5.8
COc1cc(/C=C2\SC(=O)N(c3ccccc3Cl)C2=O)cc([N+](=O)[O-])c1O | 36.2 | 12.6 | 6.8 | 3410 | 6.7 | 39.9 | 37.2
Cc1cc(C(=O)COC(=O)c2cccnc2Cl)c(C)n1C | 7.6 | 2.6 | 2.9 | 5774 | . | 19.9 | 1.7

Part of the list above, field by field:
Structure: COc1cccc(CN2CCN(Cc3cccc4nonc34)CC2CCO)c1 (stereo unspecified)
  Sa RN4220 lethal = 0.3 | Mtb hypoxia inh = 3.3 | Mtb hypoxia inh growth = 5.4 | Autofluor counter = 3488 | BJeLR lethal = 2.4 | PrP 5UTR inh = -17.3 | ugtP null kill = -1.9
Structure: CN(C)S(=O)(=O)c1cccc(NC(=O)CC23CC4CC(CC(C4)C2)C3)c1
  Sa RN4220 lethal = -1.1 | Mtb hypoxia inh = 2.0 | Mtb hypoxia inh growth = 1.4 | Autofluor counter = 5203 | BJeLR lethal = 6.9 | PrP 5UTR inh = -13.9 | ugtP null kill = 5.1
Structure: CC(=O)NNC(=S)Nc1cccc(F)c1
  Sa RN4220 lethal = 2.3 | Mtb hypoxia inh = 9.1 | Mtb hypoxia inh growth = 5.0 | Autofluor counter = 6172 | BJeLR lethal = -5.8 | PrP 5UTR inh = -21.7 | ugtP null kill = -2.6

Further results follow.
molecule | Sa RN4220 lethal | Mtb hypoxia inh | Mtb hypoxia inh growth | Autofluor counter | BJeLR lethal | PrP 5UTR inh | ugtP null kill
COc1ccc(S(=O)(=O)N2CCCC2)cc1NC(=O)c1ccccc1 | -0.5 | -3.7 | -2.8 | 4028 | 7.9 | -27.1 | -0.6
CCCc1nc2ccccc2c(=O)n1/N=C/c1ccc(O)cc1O | . | . | . | 2816 | 1.0 | -18.6 | .
Cc1ccc(C(=O)NCCc2ccc(S(N)(=O)=O)cc2)o1 | 0.3 | 0.5 | 1.1 | 4590 | 6.5 | -27.4 | 0.3
O=C(CNS(=O)(=O)c1ccc(Br)cc1)Nc1ccc2c(c1)OCCO2 | -1.1 | -6.4 | 9.2 | 5864 | -14.5 | -5.4 | -1.3
O=S1(=O)CC2(N3CCOCC3)CCCCC21 (stereo unspecified) | 3.6 | 6.7 | 4.6 | 19624* | -3.7 | -5.7 | 1.7
Cn1c(=O)c2c(ncn2CC(=O)N/N=C/C(Cl)=C/c2ccccc2)n(C)c1=O | . | . | . | 2573 | 3.5 | -11.4 | .
CCOC(=O)N1CCN(C(=O)CS(=O)(=O)Cc2nc(-c3cccc(OC)c3)oc2C)CC1 | 3.4 | 4.8 | -8.8 | 5623 | 5.5 | 2.8 | 2.9
COc1ccc(C(=O)OCCN=C2NS(=O)(=O)c3ccccc32)cc1OC | 0.8 | -10.2 | 3.2 | 21489* | -13.2 | 0.2 | 9.1
COCCCNC(=O)Cn1c(=O)n(Cc2ccc(C(=O)NCCc3ccc(OC)c(OC)c3)cc2)c(=O)c2ccccc21 | 1.0 | -4.6 | 0.6 | 5045 | -7.2 | -13.4 | 5.0
COc1cc(OCc2ccccc2)c(C(=O)/C=C/c2ccc3c(c2)OCO3)c(OC)c1OC | -3.1 | 1.4 | -3.1 | . | 3.6 | 0.6 | 27.5
CCOC(=O)c1ccccc1NC(=O)CSc1nc2ccccc2c(=O)n1CCCN1CCOCC1 | 1.1 | -1.5 | 11.2 | 4635 | . | -4.3 | -1.6
O=C(O)c1cc(Cl)c(Cl)cc1C(=O)N(Cc1ccccc1)Cc1ccccc1 | 16.9 | -0.9 | -0.5 | 4403 | -4.7 | -12.5 | -19.6
CC(OC(=O)c1ccc(F)c(S(=O)(=O)N2CCOCC2)c1)C(=O)NCC1CCCCC1 (stereo unspecified) | -0.3 | 1.2 | -0.4 | 4786 | . | -44.4 | 0.8
CCOC(=O)c1sc2nc3c(SCCC#N)cc(C(=O)c4cc(F)ccc4O)cn3c(=O)c2c1C | 3.8 | 3.0 | 1.0 | 7467 | -1.5 | -22.3 | -15.5
CCCCOCCCNc1ncnc2c1[nH]c1ccccc12 | -0.4 | -7.4 | -9.2 | 23545* | -2.1 | -13.8 | -6.8
CC(=NNC(=O)C1(C)CC1(Br)Br)c1cccc(NC(=O)C2CCC2)c1 (stereo unspecified) | 0.2 | 6.0 | 6.1 | . | . | . | -2.7
Cc1ccc(NC(=O)CC2SC(=NCC3CCCO3)NC2=O)cc1Cl (stereo unspecified) | 1.7 | -4.0 | 2.2 | 2086 | 2.2 | -34.5 | 3.0
NC(=O)C1CCN(C(=O)C(Cc2ccccc2)NC(=O)c2ccccc2)CC1 (stereo unspecified) | 5.2 | 5.0 | 1.6 | 3274 | . | -12.4 | 8.7
CCc1ccc(CNC(=O)CCS(=O)(=O)Cc2ccccc2F)cc1 | -0.1 | 4.4 | 2.4 | 4342 | 3.9 | 6.3 | 1.2

Assay outcomes as filed in PubChem.

Outcome played no part in choosing rows (roughly 4.1% active in at least one column).
